Screens from PubChem BioAssay.
TSHR ag: TSH receptor (human) agonism; 0.48% of 73,000 active; HEK293-CNG-TSHR cells (CNG channel as cAMP sensor), membrane potential dye, cAMP; AID 926; Potency, µM (series often up to 57.1 µM), for inactives: at the top dose activation, most hits filed as activators; P16473; active = well fitted activation curve of enough size with the parental cells flat; inconclusive = any curve in the parental cells; inactive = parental cells flat and receptor cells flat or falling; note: potency is the fitted concentration of half-maximal effect; % of control where 0% means no effect; weak receptor curves with flat parental cells got no call and are not listed
Target sequence (P16473 whole entry, looked up): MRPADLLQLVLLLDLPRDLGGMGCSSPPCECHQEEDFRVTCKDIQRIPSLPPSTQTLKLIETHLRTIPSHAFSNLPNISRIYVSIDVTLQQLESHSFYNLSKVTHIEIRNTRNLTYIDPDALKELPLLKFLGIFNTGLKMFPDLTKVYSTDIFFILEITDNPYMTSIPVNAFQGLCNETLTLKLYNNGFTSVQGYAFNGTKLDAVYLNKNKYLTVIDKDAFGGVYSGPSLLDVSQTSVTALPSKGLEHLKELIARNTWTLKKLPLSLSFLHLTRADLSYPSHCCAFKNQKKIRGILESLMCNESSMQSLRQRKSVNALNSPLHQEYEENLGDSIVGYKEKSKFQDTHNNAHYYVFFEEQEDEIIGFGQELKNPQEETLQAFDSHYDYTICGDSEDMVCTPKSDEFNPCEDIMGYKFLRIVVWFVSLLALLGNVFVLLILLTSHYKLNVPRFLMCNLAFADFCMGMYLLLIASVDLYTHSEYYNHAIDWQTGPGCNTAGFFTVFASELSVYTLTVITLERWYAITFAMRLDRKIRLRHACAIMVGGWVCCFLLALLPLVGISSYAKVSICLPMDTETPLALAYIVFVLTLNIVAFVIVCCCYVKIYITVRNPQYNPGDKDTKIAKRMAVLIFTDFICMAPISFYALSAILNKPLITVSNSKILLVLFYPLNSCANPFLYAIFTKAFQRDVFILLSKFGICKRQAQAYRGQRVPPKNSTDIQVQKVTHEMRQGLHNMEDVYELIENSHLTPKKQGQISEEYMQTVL
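HEK 293 cells stably expressing TSHR and a cAMP-gated CNG channel; parental CNG-only cells as counterscreen. Cells preloaded 60 min with membrane potential dye plus 100 uM RO 20-1724, then compound 30 min; fluorescence read at 590 nm.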
AID923: qHTS Assay for Allosteric/Competitive Inhibitors of Caspase-1: Spectroscopic Profiling in AFC Spectral Region. 1.1% of 75,000 active. AID 923, 2007. Potency, µM (series often up to 57.5 µM), for inactives: at the highest dose fluorescence increase, hits mostly activators. compound fluorescence, AFC spectral region (405/520 nm); almost no hit is shown here; active = well fitted activation curve with a large enough effect; inconclusive = small, poorly fitted or top-dose-only effect;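 note: potency is the fitted concentration of half-maximal effect; 0% is about no effect; scaled to a free AFC standard on each plate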
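Baseline compound fluorescence (AFC region, 405 nm ex/520 nm em) taken from the intercept of kinetic reads with 50 nM caspase-1 and 5 uM Ac-WEHD-AFC; normalized to an on-plate AFC standard curve; compounds titrated up to 57 uM.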
A647 autofl: A647 region autofluorescence; Compound fluorescence, A647 channel (570/671 nm), Tris buffer; max dye-equivalent concentration, M; 59,000 tested, under 10 active; AID 592; active means above 1 µM dye equivalent; inconclusive means 0.1 to 1 µM; inactive means 0.1 µM or less;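 note: values scaled relative to a standard on each plate; highest value over a series up to 38 µM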
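Tris 100 mM pH 8.0; cpd + A647 stds pin-transferred; 15 min RT; CCD imager, ex 570/em 671. Output = A647-equivalent conc. per cpd conc.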
A488 autofl: A488 region autofluorescence; compound autofluorescence, A488 spectral region, dye equivalency; stronger effect = higher value; max dye equivalency, M; 0.1% of 59,000 active; AID 591; active = above 10 nM dye equivalent; inconclusive = 1 to 10 nM; inactive = 1 nM or less; about half of its hits are not listed in these tables;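 note: highest value over a series up to 38 µM; compound alone in buffer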
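Intrinsic compound fluorescence is measured in 100 mM Tris buffer at pH 8.0 following 15 min incubation at room temperature. Intensities at 480 nm excitation/540 nm emission are calibrated to an on-plate A488 concentration series, giving dye-equivalent concentrations.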
Resorufin autofl: compounds fluorescent in resorufin spectral region; AID 588; 0.04% of 59,000 active; max dye-equivalent concentration, M; Compound fluorescence, resorufin region 547/598 nm, buffer; stronger effect = higher value; active = above 10 nM dye equivalent; inconclusive = 1 to 10 nM; inactive = 1 nM or less; a few of its hits are not listed in these tables; note: highest value over a series up to 38 µM
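Tris 100 mM pH 8.0; compound added, 15 min RT; CCD imager read, ex 547 nm/em 598 nm; signal normalized to resorufin standard curve (six concentrations per plate) as dye-equivalent concentration.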
* hit, by the source's call; i = inactive; ? = inconclusive; nt = not tested or not shown; [ ] = dose if it differs, or a comment.

| Compound | A488 autofl | A647 autofl | AID923 | TSHR ag | Resorufin autofl |
| --- | --- | --- | --- | --- | --- |
| Cc1ccc(N2C(=O)[C@@H]3C(c4ccc(F)cc4)=NO[C@@H]3C2=O)cc1 | i | 4.2e-09 | 0.8% | nt | i |
| COc1ccc(C(=O)N2CCC3(CCCN(c4ccccc4)C3)CC2)cc1 | i | 2.2e-08 | 3.1% | 25% | i |
| COc1ccc(N2CCN(C(=O)CSc3ccccc3N)CC2)cc1 | i | 3.4e-09 | -2.8% | 2% | i |
| Cc1ccc(-n2c(=O)[nH]cc(C(=O)Nc3ccc4c(c3)OCCO4)c2=O)cc1C | i | 2.4e-09 | -0.8% | 0% | i |
| Cc1cc(C)n(-c2nc3c(c(=O)n(Cc4ccc(Cl)c(Cl)c4)c(=O)n3C)n2C)n1 | i | 3.9e-08 | -2.2% | 9% | i |
| COC(=O)c1oc2ccc(Br)cc2c1-n1cccc1 | i | 1.3e-08 | -0.1% | ? | i |
| Cc1ccc(P(=Nc2ccccc2)(N2CCOCC2)N2CCOCC2)o1 | i | 1.4e-08 | 0.5% | 3% | i |
| CC1CCN(c2ccc(C(=O)NCc3cccs3)cn2)CC1 | i | 2.2e-08 | 2.5% | ? | i |
| O=C(CN(C(=O)CCC(=O)Nc1nccs1)c1ccccc1F)NCC1CCCO1 (stereo not drawn) | i | 1e-09 | 0.9% | 3% | i |
| CC(C)(C)/C(O)=C(/C#N)c1nc2ccccc2[nH]1 | i | 2.1e-08 | -0.5% | 5% | i |
| Cc1ccc(S(=O)(=O)NCC(=O)OC2CCOC2=O)cc1 (stereo not drawn) | i | 1e-09 | 0.2% | 1% | i |
| Cc1cc(C)n2cc(CSc3nc4cc(Cl)ccc4o3)nc2n1 | i | 1e-08 | -0.4% | 16% | i |
| CCOc1ccc(-c2nc(-c3ccccc3)no2)cc1OCC | nt | nt | 0.8% | -5% | nt |
| CC1CN(c2oc(COc3ccc(Cl)cc3Cl)nc2C#N)CC(C)O1 (stereo not drawn) | i | 5.5e-09 | -0.3% | ? | i |
| CC(C)N(Cc1ccccc1)C(=O)COC(=O)c1ccc2c(c1)OCCO2 | i | 2.3e-08 | 0.3% | ? | i |
| CCOC(=O)c1sc(NC(=O)c2cccc(S(=O)(=O)N3CCN(C)CC3)c2)cc1C | i | 2.4e-09 | -1.3% | 7% | i |
| O=C(O)C[C@H](Nc1ccccc1)C(=O)O | i | 2.1e-08 | 1.7%[11.5 µM] | -4%[11.4 µM] | i |
| c1ccc2[nH]c(NCCCN3CCOCC3)nc2c1 | i | 1.5e-08 | 1.7% | 1% | i |
| Cc1n[nH]c(=O)nc1N1CCN(c2ccccc2)CC1 | i | 1e-09 | 1.9% | -2% | i |
| COc1ccc(OC)c2[nH]c(=O)c(CCNC(=O)c3ccc(S(=O)(=O)N4CCCC4)cc3)cc12 | i | 5e-09 | 2.4% | 9% | i |
| CCOC(=O)Cn1c(=O)oc2cc(S(=O)(=O)Nc3ccc(F)cc3)ccc21 | nt | nt | -0.7% | -17% | nt |
| Cc1ccccc1NC(=O)Cc1nnc(SCC(=O)N2CCN(c3ccccc3)CC2)n1C | i | 4.2e-08 | -3.7% | -5% | i |
| CN(C)S(=O)(=O)c1ccc(Nc2ccc(O)c3c2C(=O)c2c([N+](=O)[O-])ccc(O)c2C3=O)cc1 | i | 1.5e-08 | -2.0%[11.5 µM] | ? | i |
| CCc1ccc(NS(=O)(=O)c2ccc(Cl)cc2OC)cc1 | nt | nt | -0.2% | -18% | nt |
| COC(=O)C1CCN(S(=O)(=O)Cc2ccccc2)CC1 | i | 2.6e-08 | 2.6% | -1% | i |
| CCCNC(=O)c1cccc(COCC(F)(F)C(F)F)c1 | i | 1e-09 | -0.6% | 6% | i |
| CC1Oc2ccccc2N(CC(=O)N2CCCc3ccccc32)C1=O (stereo not drawn) | i | 6.8e-09 | -3.0% | 6% | i |
| CCc1nnc(NC(=O)CSc2nnc(-c3ccc(OC)cc3)n2C)s1 | i | 2.5e-08 | 0.8% | 1% | i |
| COc1ccc(NC2CC(=O)N(C(C)C)C2=O)cc1 (stereo not drawn) | i | 1e-08 | -0.7% | 0% | i |
| CC1(C)CC(=O)C2=C(C1)N(CC1CCCO1)C(=O)NC2(C(F)(F)F)C(F)(F)F (stereo not drawn) | i | 1.2e-08 | 1.1% | -1% | i |
| O=C(NCCc1ccccc1F)C1CCCN1S(=O)(=O)c1ccccc1 (stereo not drawn) | nt | nt | 2.5% | 2% | nt |
| COc1ccccc1-c1nnc(SCc2ccccn2)n1C | i | 1.8e-08 | 1.6% | -2% | i |
| CCOC(=O)c1c(C)[nH]c2cc(Br)c(O)cc12 | i | 1.1e-08 | -2.9% | -5% | i |
| Cc1cccn2c(=O)c3cc(C(=O)Nc4ccc(N(C)C)cc4)n(C)c3nc12 | i | 1.5e-08 | 1.1% | 20% | i |
| CNC(=O)CSc1nnc(COc2ccc(Cl)cc2)n1CCOC | i | 4e-08 | -1.9% | ? | i |
| CCC(C)NC(=O)c1ccc(NC(=O)C2CCCO2)cc1 (stereo not drawn) | i | 2.2e-08 | 0.8% | -7%[11.4 µM] | i |
| c1ccc(COc2cccc(CN3CCN(c4ccccn4)CC3)c2)cc1 | i | 6.1e-09 | -0.3% | ? | i |
| Oc1ccccc1C1=NCCNC(C(F)(F)C(F)F)=C1 | i | 2.2e-08 | -1.5% | 0% | i |
| N/C(CC(=O)Nc1cc(C(F)(F)F)ccc1Cl)=N\O | i | 4.5e-08 | 0.0%[11.5 µM] | -2%[11.4 µM] | i |
| CCCC[C@@H]1C[C@H]1C(NC(=O)c1cccs1)c1ccc(Cl)cc1 (stereo partly drawn) | nt | nt | 2.1% | ? | nt |
| CCN(CC)CCOC(=O)C1(c2ccc([N+](=O)[O-])cc2)CCCC1 | i | 8.7e-09 | -1.4% | ? | i |
| CC(C)C(=O)N1CCN(c2ccc(NC(=O)c3ccc(Br)o3)cc2)CC1 | i | 4.7e-09 | -0.5% | -19% | i |
| Cc1ccc(-n2c(Cc3cccn3C)nnc2SCC(=O)Nc2ccc3c(c2)OCO3)cc1 | i | 9.2e-09 | 0.6% | 6% | i |
| CCOC(=O)c1c(N)nn(C(=O)C(C)C)c1-c1ccccc1 | i | 1e-09 | -3.9% | ? | i |
| CCOc1ccc2[nH]c(=O)c(CN(Cc3ccco3)C(=O)c3cccc(F)c3)cc2c1 | i | 5.5e-08 | -2.3% | 2% | i |
| COc1ccc(C(=O)/C=C/Nc2cc(C)on2)c(OC)c1 | i | 1e-09 | 1.0% | -1% | i |
| CCCSCCCNC(=O)CC1Oc2ccccc2NC1=O (stereo not drawn) | nt | nt | 2.0% | -8% | nt |
| COc1cccc(-c2nc(N(C)C)c3ccccc3n2)c1 | i | 1.5e-08 | 7.1% | 20% | i |
| CC(C)CC1NC2(C(=O)N(C)c3ccccc32)C2C(=O)N(C(C)C)C(=O)C12 (stereo not drawn) | nt | nt | 3.2% | 3% | nt |
| CC(=O)NCCOc1nc(N(C)C)nc(N2CCOCC2)n1 | i | 4.8e-09 | 1.2% | nt | i |
| COC(OC)[C@@H](C)[C@H](OC)[C@@H](C)[C@H](OC)c1ccccc1 | nt | nt | 2.9%[11.5 µM] | -6%[11.4 µM] | nt |
| O=C(Nc1ccc(Nc2ccc3c(c2)C(=O)c2ccccc2C3=O)c2c1C(=O)c1ccccc1C2=O)c1ccccc1 | i | 1e-09 | -3.2%[11.5 µM] | -45%[inhibitor][11.4 µM] | i |
| CCNS(=O)(=O)c1ccc(NC(=O)Cn2nc(C(F)(F)F)cc2C)cc1 | i | 2.3e-08 | -0.1% | -4% | i |
| O=C(Cn1nnc2c(cnn2-c2ccccc2)c1=O)N1CCN(c2ccccc2F)CC1 | i | 1e-09 | -0.7% | 7% | i |
| CCCCNC(=O)CC1N=C2c3ccccc3N=C(SCC(=O)Nc3ccc(OC)cc3)N2C1=O (stereo not drawn) | i | 1e-09 | 0.6% | -3% | i |
| c1csc(CNc2nc(-c3ccoc3)nc3ccccc23)c1 | i | 1e-09 | 2.4% | 30% | i |
| CN1CCN(S(=O)(=O)c2ccc(NC(=O)c3cccs3)cc2)CC1 | i | 1e-09 | -1.3% | 0% | i |
| COC(=O)c1ccc(NC(=O)CSc2nnc(-c3ccncc3)n2C)cc1 | i | 1e-09 | -1.0% | 4% | i |
| COCCn1c(SCc2c(F)cccc2Cl)nc2c1c(=O)[nH]c(=O)n2C | i | 7.2e-08 | nt | nt | i |
| COc1ccccc1CNc1ccnc(-c2ccccc2Cl)n1 | i | 3e-08 | 0.1% | ? | i |

Exported with values under each structure: entries from further up.
Results follow in this order: A488 autofl, A647 autofl, AID923, TSHR ag, Resorufin autofl
> c1ccc(COc2cccc(CN3CCN(c4ccccn4)CC3)c2)cc1
→ i, 6.1e-09, -0.3%, ?, i
> COc1ccccc1CNc1ccnc(-c2ccccc2Cl)n1
→ i, 3e-08, 0.1%, ?, i

Following part:
| Compound | A488 autofl | A647 autofl | AID923 | TSHR ag | Resorufin autofl |
| --- | --- | --- | --- | --- | --- |
| O=C1/C(=C/c2ccccc2)Oc2ccccc21 | nt | nt | -1.1%[11.5 µM] | 5%[11.4 µM] | nt |
| CC(C)OCC(O)CN (stereo not drawn) | i | 1e-09 | 0.0% | 2% | i |
| Oc1ccc(Nc2nc(N3CCCC3)c3ccccc3n2)cc1 | i | 2.8e-08 | -0.5% | ? | i |
| CCOC(=O)c1cnn(CCOC(=O)Cc2cccs2)c1NC(=O)Cc1cccs1 | i | 1e-09 | 0.4% | 15% | i |

Single records (already shown). Screens in order: A488 autofl | A647 autofl | AID923 | TSHR ag | Resorufin autofl
Entry for `CC1Oc2ccccc2N(CC(=O)N2CCCc3ccccc32)C1=O` (stereo not drawn) : i | 6.8e-09 | -3.0% | 6% | i
Entry for `O=C(O)C[C@H](Nc1ccccc1)C(=O)O` : i | 2.1e-08 | 1.7%[11.5 µM] | -4%[11.4 µM] | i
Entry for `CCCC[C@@H]1C[C@H]1C(NC(=O)c1cccs1)c1ccc(Cl)cc1` (stereo partly drawn) : nt | nt | 2.1% | ? | nt

Compounds shown so far with a nitro group on carbon:
| Compound | A488 autofl | A647 autofl | AID923 | TSHR ag | Resorufin autofl |
| --- | --- | --- | --- | --- | --- |
| CN(C)S(=O)(=O)c1ccc(Nc2ccc(O)c3c2C(=O)c2c([N+](=O)[O-])ccc(O)c2C3=O)cc1 | i | 1.5e-08 | -2.0%[11.5 µM] | ? | i |
| CCN(CC)CCOC(=O)C1(c2ccc([N+](=O)[O-])cc2)CCCC1 | i | 8.7e-09 | -1.4% | ? | i |

Not all compounds are listed; count on the stated rates, not on these rows.
